High-throughput results: PubChem, National Center for Advancing Translational Sciences (NCATS)
HTT prom inh – inhibits huntingtin promoter activity; HEK293 HTT promoter firefly luciferase reporter (activity 0% = vehicle and -100% = no light), 24 h; Potency, µM (highest dose often 57.5 µM), for the others: at the top dose activity change, negative = inhibition, most hits filed as inhibitors; 48,000 compounds, 0.93% hits; AID 1508623; active = well fitted inhibition curve with a large enough effect; inconclusive = small, poorly fitted or top-dose-only effect; inactive = no such curve, though single readings can be large or run the other way; note: nearly all actives have a fitted effect of over 50% in size
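HEK293 luciferase promoter-reporter cells (2,500/well) plated 24 h, then compounds added at up to 57.5 uM final for 24 h at 37 °C. Firefly luminescence by Dual-Glo, normalized to vehicle (0%) and zero RLU (-100%).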
PMP22 txn – modulates PMP22 transcription in S16 Schwann cells. S16 Pmp22-F2sN Schwann cells (luciferase reporters placed in the Pmp22 gene), FLuc/NLuc coincidence luminescence, 24 h. Potency, µM (doses to about 57.5 µM), inactives show top-dose activity change, negative = inhibition, usual class: inhibitors. AID 1508649. 43,000 compounds, 2% hits; active = clear falling dose curves in both reporters; inconclusive = both reporters move, but less clearly or upward; inactive = either reporter flat; the % is the NLuc reporter signal; note: % is set by controls: 0 for no effect and ±100 for the full control effect; some results filed as inactive show a strong effect at the top dose
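qHTS, 1536-well. Cells seeded, compounds added by pin tool, 24 h 37C. Nano-Glo reagent 1 (lysis/FLuc), 10 min RT, read; Stop&Glo, 10 min RT, read NLuc.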
The depositor's hits bear a star; ? = inconclusive; · = no result given; & = joins results of further samples; [ ] = remark or other dose. Potency is the fitted concentration of half-maximal effect. Some of the compounds tested. The share of hits here may be higher or lower than overall.

The line under a structure holds: PMP22 txn, HTT prom inh
[1] COc1ccc(OCC(=O)NCc2ccc3c(c2)CCN3C(=O)c2cccc(C)c2)cc1
  20µM*, ?
[2] CCOC(=O)c1sc2ccccc2c1S(=O)(=O)Nc1c(C)cccc1C
  -11%, -13%
[3] CC1CCN(c2nc3ccccc3nc2SCC(=O)Nc2ccccc2C(C)C)CC1
  ?, -20%
[4] Cc1cccc(CNC(=O)c2ccc(Cn3c(SCc4ccccc4)nc4cccnc43)cc2)c1
  -39%, -16%
[5] CCOc1ccccc1NC(=O)Cn1c(=O)n(Cc2ccco2)c(=O)c2ccc(C(=O)NC3CCCC3)cc21
  ?, -11%
[6] CC(=O)c1cccc(NC(=O)C2=CC(c3ccc4c(c3)OCO4)=NS(=O)(=O)N2C)c1
  -8%, -29%
[7] COc1ccc(NC(=O)Cn2nnc(C(=O)NCc3ccco3)c2N)c(OC)c1
  -30%, -14%
[8] COc1ccc(-c2cc(C(F)(F)F)nc(SCC(=O)N3CCCCC3C)n2)cc1OC (configuration not stated)
  ?, ?
[9] COc1ccc(-n2nc3c(c2NC(=O)C(=O)N2CCN(C)CC2)CSC3)cc1
  ?, -8%
[10] CC1=C(C(=O)Nc2ccccc2C)C(c2cccs2)n2nc(SCc3ccccc3)nc2N1 (configuration not stated)
  ?, -21%
[11] CC(C)(C)c1ccc(OCCn2cc(C(=O)c3ccco3)c3ccccc32)cc1
  ?, ?
[12] CCn1nc(-c2ccccc2)c(-c2ccccc2)c(C(=O)Nc2nc(C)c(C(C)=O)s2)c1=O
  ?, -9%
[13] CCCNc1ncnc2c1c(-c1ccccc1)cn2-c1ccc(OCC)cc1
  -39%, ?
[14] COc1ccc(NC(=O)CCS(=O)(=O)c2cccc3nonc23)cc1Cl
  -13%, -13%
[15] COc1cccc2cc(C(=O)NCCc3c(C)[nH]c4ccc(F)cc34)c(=O)oc12
  -30%, 8%
[16] CCN(CC)S(=O)(=O)c1ccc2c(c1)c(=O)c(C(=O)N1CCN(c3cc(Cl)ccc3C)CC1)cn2C
  -27%, -2%
[17] CCn1c(=O)cc(SCC(=O)NCCc2cccc(C)c2)c2ccccc21
  7%, -16%
[18] O=C(c1ccco1)N(Cc1cccs1)c1ccc(F)cc1
  5%, -18%
[19] O=C(Nc1ccc(Cl)cc1Cl)c1cc(S(=O)(=O)N2CCC3(CC2)OCCO3)ccc1F
  ?, ?
[20] CCOC(=O)c1cc(-c2ccc(C)cc2)n(CCC(=O)Nc2nc3c(C)cccc3s2)c1C
  ?, ?

Of the compounds above, these have a Cl atom.
The line under a structure holds: PMP22 txn, HTT prom inh
[14] COc1ccc(NC(=O)CCS(=O)(=O)c2cccc3nonc23)cc1Cl
  -13%, -13%
[16] CCN(CC)S(=O)(=O)c1ccc2c(c1)c(=O)c(C(=O)N1CCN(c3cc(Cl)ccc3C)CC1)cn2C
  -27%, -2%
[19] O=C(Nc1ccc(Cl)cc1Cl)c1cc(S(=O)(=O)N2CCC3(CC2)OCCO3)ccc1F
  ?, ?

Additional records.
The line under a structure holds: PMP22 txn, HTT prom inh
[21] Fc1cccc(Cl)c1CNCCSc1nnnn1-c1ccccc1
  -14%, -9%
[22] Cc1cc(-n2nc3ccc(Cl)cc3n2)c(O)c(C(C)(C)C)c1
  ·, -1%
[23] COc1cccc(N2CCN(C(=O)C3CCN(S(=O)(=O)c4c(C)noc4C)CC3)CC2)c1
  -28%, -2%
[24] COc1ccc(-n2c(=O)c3sc4ccccc4c3n(CC(=O)Nc3ccccc3F)c2=O)cc1
  -30%, 13%
[25] COc1ccc(OC)c(CNc2ncc(-c3ccc(Cl)cc3)n2C)c1
  -12%, 5%
[26] CCCNS(=O)(=O)c1ccc2nc(NC(=O)c3ccc(F)cc3)sc2c1
  ?, ?
[27] Cc1cc(C)cc(NC(=O)c2sc3nc4n(c(=O)c3c2C)N=C(c2ccc(F)cc2)CS4)c1
  6%, -11%
[28] CCC(=O)N1CCc2cc(Br)cc(S(=O)(=O)CCC(=O)Nc3ccc(C)c(F)c3)c21
  ?, -5%
[29] CCOc1ccc(S(=O)(=O)N2CCN(c3ccc(Cl)c(Cl)c3)CC2)c2ccccc12
  -12%, -2%
[30] COC(=O)c1ccc(Nc2nnc(-c3ccc(C)c(S(=O)(=O)N4CCN(C)CC4)c3)c3ccccc23)cc1
  -44%, 8%
[31] COc1cccc(-c2cc(C(F)(F)F)nc(NCCc3ccccc3)n2)c1
  -20%, 14%
[32] COc1ccc(NC(=O)C2CCN(c3nc4ccccc4[nH]3)CC2)cc1OC
  17%, -1%
[33] CCn1c(=O)c2cc(C(=O)NCc3cc(OC)ccc3OC)sc2c2ccccc21
  -16%, -22%
[34] COc1ccc(-n2cc(C(=O)Oc3cc(C)cc(C)c3)c3ccccc3c2=O)cc1
  -61%, -1%
[35] Fc1ccc(-c2nc(Nc3cccc(Cl)c3)nc3c2COc2ccccc2-3)cc1
  2%, ?
[36] CCc1ccc(-n2nc(CO)c(C(=O)NC(C)c3ccc(Cl)cc3)n2)cc1 (configuration not stated)
  -3%, -3%
[37] COc1ccc2c(c1)c(=O)c(C(=O)c1ccc(C)cc1)cn2Cc1ccccc1F
  ?, -22%
[38] CC(=O)Nc1ccc(NC(=O)Cn2cc3c(n2)CCCCC3)cc1
  -15%, 1%
[39] CC1(C)S[C@@H]2[C@H](NC(=O)C(C(=O)O)c3ccccc3)C(=O)N2[C@H]1C(=O)O (some centres not stated)
  ·, -2%
[40] O=C(Cn1cc(SCc2cccc(C(F)(F)F)c2)c2ccccc21)N1CCCCCC1
  ?, -24%
[41] CCOC(=O)Cn1c(=O)oc2cc(S(=O)(=O)NC(C)c3ccccc3)ccc21 (configuration not stated)
  3%, 2%
[42] Cc1ccc(S(=O)(=O)NCCc2nnc3ccc(SCC(=O)Nc4c(C)cc(C)cc4C)nn23)cc1
  -17%, -8%
[43] COc1ccc(OC)c(NC(=O)Cn2cc(S(=O)(=O)c3ccccc3)c(=O)c3cc(C)ccc32)c1
  5%, -10%
[44] CCc1cccc(NC(=O)CSC2=Nc3ccccc3N=C(c3ccc(F)cc3)C2)c1
  ?, ?
[45] Cc1cccc(N2CCN(C(=O)c3ccc4nc(N5CCC(C)CC5)sc4c3)CC2)c1C
  ?, 2.5µM*
[46] Cc1cccc(OCC(=O)Nc2nnc(S(=O)(=O)N3CCCCCC3)s2)c1
  13%, -6%
[47] Cc1ccc2c(c1)N(C(=O)NCc1ccccc1)CCO2
  -10%, 3%
[48] COc1ccc(OC)c(S(=O)(=O)NCC(c2ccc(N(C)C)cc2)N2CCOCC2)c1 (configuration not stated)
  2%, -4%
[49] Cn1c(=O)c2c(-c3ccccc3Br)n(C(C)(C)C)cc2n(C)c1=O
  16µM*, -24%
[50] Cc1ccc(N(C)S(=O)(=O)c2nnc(NC(=O)c3ccco3)s2)cc1
  1%, -5%
[51] Cc1ccc(C)c(Cn2c(C(=O)O)c(CNCc3cccs3)c3ccccc32)c1
  -19%, -25%
[52] Cc1cc(C)c2c(=O)cc(C(=O)NCc3ccc(S(N)(=O)=O)cc3)oc2c1
  3%, 4%
[53] COC(=O)c1ccc(NC(=O)c2cc(S(=O)(=O)N3CCc4ccccc43)cn2C)cc1
  -29%, -10%
[54] Cc1sc(C2C(C#N)=C(N)N(c3cccc(Cl)c3)C3=C2C(=O)CCC3)cc1CN1CCOCC1 (configuration not stated)
  ?, -9%
[55] Cc1ccccc1-c1nc(CS(=O)(=O)CC(=O)NCCc2ccccc2)c(C)o1
  -3%, -15%
[56] CC(C)c1ccc(CNc2nc(-c3ccco3)nn2C(=O)c2ccc([N+](=O)[O-])cc2)cc1
  2%, 71%[activator]
[57] Cc1c(NC(=O)C(C)(C)C)cccc1-c1nc2ccccc2s1
  3%, 23%
[58] CCc1ccc(NC(=O)Cn2c(=O)n(CCC(=O)N3CCc4ccccc4C3)c(=O)c3ccccc32)cc1
  -1%, -13%
[59] O=C(CSc1nnc(CNC(=O)c2ccccc2)n1-c1cccc(Cl)c1)Nc1ccccc1F
  -5%, -2%
[60] Cc1ccc(S(=O)(=O)c2nc(-c3ccco3)oc2SCC(=O)c2ccc(Cl)cc2)cc1
  ?, ?
[61] Cc1ccc(-n2ncc3c(NCCO)ncnc32)cc1Cl
  ?, 62%[activator]
[62] CCn1cc2nc(SCc3cc(C)ccc3C)n(Cc3ccc(OC)cc3)c(=O)c2n1
  ?, -25%
[63] CNC(=O)C1CCC(Cn2c(=O)c3sccc3n(CC(=O)Nc3ccc(C)c(F)c3)c2=O)CC1 (configuration not stated)
  48%, ?
[64] O=c1[nH]c(=O)c2[nH]c(=O)[nH]c2[nH]1
  ·, -6%[11.5 µM]
[65] CCC(CC)C(=O)Nc1ccc(OCc2cc(=O)n3ccc(C)cc3n2)cc1
  8%, -6%
[66] CCCCc1nn2c(=O)cc(COC(=O)c3cccc(NC(=O)c4cccs4)c3)nc2s1
  0%, -15%
[67] COc1cccc(Cn2c(CNC(=O)CCc3ccccc3)nc3cccnc32)c1
  2%, -4%
[68] O=C(Nc1ccc(OC(F)(F)F)cc1)c1cc2ccccn2n1
  ?, -25%
[69] Cc1ccc(C)c(CN2C(=O)c3ccccc3S(=O)(=O)c3ccc(C(=O)NCCc4ccc(Cl)cc4)cc32)c1
  7%, -13%
[70] CO[C@H]1C=CO[C@@]2(C)Oc3c(C)c(O)c4c(O)c(c5c(c4c3C2=O)NC2(CCN(CC(C)C)CC2)N=5)=NC(=O)C(C)=CC=C[C@H](C)[C@H](O)[C@@H](C)[C@@H](O)[C@@H](C)[C@H](OC(C)=O)[C@H]1C
  ·, -15%
[71] COc1cnc(NS(=O)(=O)c2ccc(N)cc2)nc1
  ·, 78%&8%[activator]
[72] Cc1ccccc1C(=O)Nc1sc2c(c1C(=O)O)CCC(C(C)(C)C)C2 (configuration not stated)
  11%, 2.8µM*
[73] COc1cccc(-n2c(-c3cccc(F)c3)nc3c(cnn3-c3ccc(C)cc3)c2=O)c1
  ?, -27%
[74] CCCNC(=O)Cn1nc(-c2ccc(OC)cc2)c2cnc3ccc(F)cc3c21
  ?, -21%
[75] CC1CCN(S(=O)(=O)c2ccc3nc(Nc4cccc(C(F)(F)F)c4)ccc3c2)CC1
  ?, ?
[76] Cc1ccc(-c2c(C(=O)Nc3ccc(F)c(F)c3)oc(=O)c3ccccc23)cc1
  -24%, ?
[77] COCCn1c(SCC(=O)c2ccc(C)cc2C)nc2cc(C(=O)NC3CCCC3)ccc2c1=O
  25%, -7%
[78] O=c1cc(-c2ccccc2)n2c(SCc3ccccc3Cl)nnc2[nH]1
  0%, -8%
[79] COc1ccc(-n2c(CCC(=O)O)ccc2-c2ccccc2)cc1
  -1%, -9%
[80] CCN(Cc1ccccc1)C(=O)CN(c1ccc(OC)cc1)S(=O)(=O)c1c(C)nn(C)c1C
  1%, -14%

Sorted by length of the SMILES (rising): some entries from above
The line under a structure holds: PMP22 txn, HTT prom inh
[74] CCCNC(=O)Cn1nc(-c2ccc(OC)cc2)c2cnc3ccc(F)cc3c21
  ?, -21%
[76] Cc1ccc(-c2c(C(=O)Nc3ccc(F)c(F)c3)oc(=O)c3ccccc23)cc1
  -24%, ?
[69] Cc1ccc(C)c(CN2C(=O)c3ccccc3S(=O)(=O)c3ccc(C(=O)NCCc4ccc(Cl)cc4)cc32)c1
  7%, -13%

Next records follow.
The line under a structure holds: PMP22 txn, HTT prom inh
[81] CC(C)Cn1c(=O)c2ccccc2n2c(-c3cccc(Cl)c3)nnc12
  -44%, -1%
[82] Cc1c2cnn(-c3ccccc3)c(=O)c2c(C)n1CC(=O)N1CCN(c2ccc(F)cc2)CC1
  ?, ?
[83] COc1cc(OC)c(NC(=O)NCc2ccc3c(c2)CCN3C(C)=O)cc1Cl
  11%, -37%
[84] Cc1nc2c(c(C)nn2-c2ccccc2)c(C)c1CCC(=O)NCc1ccccc1
  -28%, -12%
[85] Cc1cc(C)cc(OCC(=O)NCCc2nc3ccccc3[nH]2)c1
  -3%, -20%
[86] CN1CCN(CCCNC(=O)c2cnn(-c3ccc(F)cc3)c2-n2cccc2)CC1
  -11%, -24%
[87] Cc1ccc(NC(=O)C2CCCN(c3ncnc4onc(C)c34)C2)c(Cl)c1 (configuration not stated)
  ?, ?
[88] CCOc1ccccc1NC(=O)COc1cccc2c(=O)n(CCOC)ccc12
  ?, 0%
[89] CCOc1ccc(C(=O)Nc2cccc(NC(=O)c3ccc(Cl)cc3Cl)c2)cc1
  -15%, -5%
[90] Cc1ccc(CCNS(=O)(=O)c2ccc3c(c2)C(C(C)C)C(=O)N3)cc1 (configuration not stated)
  2%, ?
[91] CCOC(=O)c1c(C)oc2nc(C)nc(NC(C)c3ccccc3)c12 (configuration not stated)
  -7%, -17%
[92] COCCCNC(=O)c1cnn(-c2ccc(F)cc2F)c1C1CCNCC1
  -31%, -14%
[93] COc1ccc(OC)c(CNC(=O)CN2CC(C)Sc3ccccc32)c1 (configuration not stated)
  ?, ?
[94] COc1ccc(F)cc1S(=O)(=O)NCC(c1ccco1)S(=O)(=O)c1ccc(F)cc1 (configuration not stated)
  19µM*, -17%
[95] Cc1cccc(NC(=O)C2CCN(c3cnccn3)CC2)c1
  5%, -6%
[96] Cc1onc(-c2ccccc2Cl)c1C(=O)Oc1ccc(Cl)cc1Cl
  ?, ?
[97] Cc1nn(-c2ccccc2)c2c1N(CC(=O)N1CCN(c3cccc(Cl)c3)CC1)C(=O)CS2
  ?, -20%
